Bioassay records from PubChem BioAssay.
Alkaline phosphatase – inhibition of tissue-nonspecific alkaline phosphatase – biochemical, luminescent (AID 518). purified TNAP enzyme, luminescent substrate readout; higher % means a stronger effect. inhibition, % at 20 µM; hits with a dose series show IC50 in µM. 0.09% of 64,000 active; in the data active means a potency from the dose series; inactive means the rest, 99 in 100 with inhibition below about 22%;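 further: plate controls were vehicle for no effect and reference inhibitor for full effect; many of its hits are not listed in these tables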
HPDE-C7K KRASV12 – cytotoxicity in KRAS-transformed pancreatic duct cells, primary screen, cell-based, fluorescence, HTS (AID 431); HPDE-C7K KRASV12 cells, Alamar Blue viability, 48 h; higher % means a stronger effect; cytotoxicity, % at 10 µM; hits with a dose series show EC50 in µM; 1.7% of 63,000 active;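 active means compounds whose percent cytotoxicity in the single-dose primary screen, scaled between solvent and toxic-drug controls, exceeds 50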;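 further: 0% = DMSO solvent wells and 100% = doxorubicin-treated wells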
HPDE-C7 viability – HPDE-C7 pancreatic duct cell viability loss – fluorescence, HTS (AID 430); HPDE-C7 pancreatic duct cells viability, fluorescence; higher % means a stronger effect; 1.8% of 63,000 active; cytotoxicity, % at 10 µM, or EC50 in µM where a hit was titrated;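 further: cells exposed to compound for 48 hours before viability readout; 0% = vehicle and 100% = reference cytotoxic drug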
LYP inhibition – inhibition of human PTPN22 tyrosine phosphatase – biochemical, DiFMUP fluorescence, recombinant catalytic domain, 10 µM, primary screen (AID 606) | recombinant LYP catalytic domain, DiFMUP fluorescence; higher % means a stronger effect | one-dose inhibition, % at 10 µM; IC50 in µM for titrated hits | 52,000 tested, under 10 active;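 active means IC50 under 40 µM in the dose-response test; inactive means IC50 of 40 µM or more, or never dose-tested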
HT1080 cytotoxicity – HT1080 cell viability loss – fluorescence readout (AID 620) | 0.42% of 87,000 active | HT1080 viability, fluorescence; higher % means a stronger effect | one-dose cytotoxicity, % at 10 µM; EC50 in µM for titrated hits;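 further: cells exposed to compound overnight then 4 h with Alamar Blue; 0% = vehicle DMSO and 100% = killing control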
Bfl-1 displacement – Bfl-1 inhibitors, primary screen, biochemical, fluorescence polarization, FITC-Bid, mouse (AID 432) | displacement, % at 20 µM; hits with a dose series show IC50 in µM | 0.02% of 64,000 active | FITC-Bid BH3 peptide fluorescence polarization displacement; higher % means a stronger effect; in the data active means a potency from the dose series; inactive means the rest, 99 in 100 with displacement below about 15%; further: strong numbers were not always called active
Numbers without * were called inactive; . = no result given. Unless noted, no stated cut-off is given here; in the data, active means cytotoxicity above about 50%; inactive means the rest. The list is partial, so the mix of outcomes need not match the whole.

SMILES	Alkaline phosphatase	HPDE-C7K KRASV12	HPDE-C7 viability	LYP inhibition	HT1080 cytotoxicity	Bfl-1 displacement
CCOC(=O)c1ccc(NC(=O)CCC(CC)C(=O)O)cc1 (stereo not drawn)	10%	-4%	1%	5%	-2%	-1%
Cc1cc(OCCN2CCCC2)ccc1C(C)C	6%	-7%	-7%	.	.	-4%
CC(=O)Nc1ccc(S(=O)(=O)N2CCC(N(C)CCC(C)C)CC2)cc1	9%	3%	-1%	.	-2%	3%
CC(=O)Nc1nc2c(c3c1c(=O)oc1ccccc13)CC(C)CC2 (stereo not drawn)	16%	-8%	2%	-7%	4%	2%
Cc1nc2ccc(S(=O)(=O)NCC(=O)N3CCc4ccccc43)cc2s1	6%	-11%	-9%	-13%	1%	-4%
C/C(=C\c1ccccc1)CN1CCN(c2ccccc2)CC1	6%	8%	12%	4%	.	10%
CN1C(=O)CS(=O)c2ccc(C(=O)NC3CC3)cc21 (stereo not drawn)	10%	5%	2%	11%	-7%	1%
NC1=NC2(CCC(c3ccccc3)CC2)n2c(nc3ccccc32)N1 (stereo not drawn)	-88%	69%*	77%*	14%	-4%	3%
CCc1ccccc1NC1c2ccccc2C(=O)N1c1cccnc1 (stereo not drawn)	2%	-10%	-2%	2%	5%	-4%
COc1ccc(C(=O)c2coc3ccc(O)c(CN4CCCC4)c23)cc1	15%	6%	6%	0%	-8%	7%
COc1ccc(C)cc1-n1nnnc1SCC(=O)Nc1cc(C)on1	16%	-7%	-3%	2%	2%	1%
CSc1oc(-c2ccco2)nc1S(=O)(=O)c1ccc(F)cc1	1%	-5%	-1%	-8%	6%	-4%
Cc1ccc(C(C)C)c(OCC(=O)Nc2ccccc2N2CCN(C)CC2)c1	20%	.	.	-2%	0%	-3%
COCC(C)NCc1ccccc1C (stereo not drawn)	3%	-4%	-4%	8%	-10%	-6%
C=CCNC(=O)c1ccc2c(c1)nnn2C	7%	-4%	0%	.	-1%	-11%
CCOC(=O)N1CCC(NC(=O)CCS(=O)(=O)c2ccc3c(c2)CCN3C(=O)CC)CC1	6%	-2%	-10%	-12%	13%	-3%
C#CC1(O)CC(C)NCC1(C)CCC#N (stereo not drawn)	4%	-19%	-3%	.	13%	-6%
CCCc1[nH]nc2c1C(CCc1ccccc1)C(C#N)=C(N)O2 (stereo not drawn)	2%	-21%	-15%	.	-4%	-4%
CCOc1ccccc1N1CCN(Cc2ccc(OC)c(OC)c2)CC1	6%	4%	2%	.	5%	4%
CC(=O)c1cccc(NC(=O)C2CCCCC2)c1	10%	-2%	1%	5%	-9%	-12%
COc1ccc(C(=O)N2CCN(C(=O)c3cc(OC)c(OC)c(OC)c3)CC2)cc1	15%	4%	6%	-1%	-1%	-2%
O=C(O)C1CC=CCC1C(=O)Nc1ccc(S(=O)(=O)N2CCCc3ccccc32)cc1 (stereo not drawn)	9%	45%	31%	9%	-8%	3%
CCCCCC1CC(CC#CCN2CCOCC2)C(=O)O1 (stereo not drawn)	22%	-18%	-22%	.	-6%	-2%
Fc1ccc(-c2nnc(-c3ccc(Cl)cc3)o2)cc1	9%	-4%	6%	.	-4%	-1%
COc1cc(CN2CCSCC2)cc(OC)c1OC	10%	-7%	-10%	.	-5%	-1%
Cc1nnc(SCC(=O)N2CCc3ccccc32)s1	10%	-24%	-17%	.	5%	0%
Cc1cccc2cc(CN(Cc3nnnn3Cc3ccco3)C3CCCC3)c3nnnn3c12	13%	30%	24%	11%	2%	4%
Brc1ccc(-c2nn3c(-c4ccncc4)nnc3s2)o1	9%	-14%	-12%	.	11%	4%
COc1ccc(C(=O)N2CCC(N3CCN(c4ccccc4)CC3)CC2)cc1OC	3%	7%	9%	12%	-6%	2%
COc1ccc(-c2nnnn2-c2ccccc2OC)cc1	-2%	37%	47%	3%	19%	2%

2 records drawn at random from those above, as already listed:
SMILES	Alkaline phosphatase	HPDE-C7K KRASV12	HPDE-C7 viability	LYP inhibition	HT1080 cytotoxicity	Bfl-1 displacement
O=C(O)C1CC=CCC1C(=O)Nc1ccc(S(=O)(=O)N2CCCc3ccccc32)cc1 (stereo not drawn)	9%	45%	31%	9%	-8%	3%
COc1cc(CN2CCSCC2)cc(OC)c1OC	10%	-7%	-10%	.	-5%	-1%

(listing goes on)
SMILES	Alkaline phosphatase	HPDE-C7K KRASV12	HPDE-C7 viability	LYP inhibition	HT1080 cytotoxicity	Bfl-1 displacement
CCOC(=O)C1CCN(C/C=C/c2ccccc2OC)CC1	13%	3%	2%	4%	5%	-6%
Cc1nnc(SCC(=O)c2c(N)n(C)c(=O)n(C)c2=O)n1Cc1ccccc1	1%	-13%	-1%	.	-7%	-4%
Cn1c(SCC(=O)N2CCCc3ccccc32)nnc1-c1ccccc1	1%	-2%	1%	.	8%	-5%
CCOC(=O)C1CCCN(Cc2c(Cl)cccc2Cl)C1 (stereo not drawn)	4%	-24%	-8%	13%	-9%	6%
O=C(NCc1ccc(Cl)cc1)c1noc2c1CCCCC2	8%	-17%	-14%	13%	2%	-3%
Fc1ccccc1CCNc1nnnn1-c1ccccc1	5%	-4%	-4%	.	3%	-5%
CC1CCCN(Cc2nc3c(c(=O)n(C)c(=O)n3C)n2CC(N)=O)C1 (stereo not drawn)	13%	.	.	4%	1%	5%
CCCn1nnnc1SCC(=O)N(C(C)C)C(C)C	7%	-11%	-15%	17%	-5%	0%

Molecules from the list above with a carbonyl joined to an NH by a bond outside any ring, in the order listed:
SMILES	Alkaline phosphatase	HPDE-C7K KRASV12	HPDE-C7 viability	LYP inhibition	HT1080 cytotoxicity	Bfl-1 displacement
CCOC(=O)c1ccc(NC(=O)CCC(CC)C(=O)O)cc1 (stereo not drawn)	10%	-4%	1%	5%	-2%	-1%
CC(=O)Nc1ccc(S(=O)(=O)N2CCC(N(C)CCC(C)C)CC2)cc1	9%	3%	-1%	.	-2%	3%
CC(=O)Nc1nc2c(c3c1c(=O)oc1ccccc13)CC(C)CC2 (stereo not drawn)	16%	-8%	2%	-7%	4%	2%
CN1C(=O)CS(=O)c2ccc(C(=O)NC3CC3)cc21 (stereo not drawn)	10%	5%	2%	11%	-7%	1%
COc1ccc(C)cc1-n1nnnc1SCC(=O)Nc1cc(C)on1	16%	-7%	-3%	2%	2%	1%
Cc1ccc(C(C)C)c(OCC(=O)Nc2ccccc2N2CCN(C)CC2)c1	20%	.	.	-2%	0%	-3%
C=CCNC(=O)c1ccc2c(c1)nnn2C	7%	-4%	0%	.	-1%	-11%
CCOC(=O)N1CCC(NC(=O)CCS(=O)(=O)c2ccc3c(c2)CCN3C(=O)CC)CC1	6%	-2%	-10%	-12%	13%	-3%
CC(=O)c1cccc(NC(=O)C2CCCCC2)c1	10%	-2%	1%	5%	-9%	-12%
O=C(O)C1CC=CCC1C(=O)Nc1ccc(S(=O)(=O)N2CCCc3ccccc32)cc1 (stereo not drawn)	9%	45%	31%	9%	-8%	3%
O=C(NCc1ccc(Cl)cc1)c1noc2c1CCCCC2	8%	-17%	-14%	13%	2%	-3%
CC1CCCN(Cc2nc3c(c(=O)n(C)c(=O)n3C)n2CC(N)=O)C1 (stereo not drawn)	13%	.	.	4%	1%	5%
